LANA-H2B inh: blocks KSHV LANA binding to histone H2A/H2B. 320,000 compounds, 0.6% hits. inhibition, % (concentration not given with the values). Q9QR71. AID 2629. cell-free LANA-H2A/H2B peptide, fluorescence polarization; in the data active = inhibition mostly above about 10%, no sharp cut-off; inactive = mostly below about 6.7%;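 note: stock transfer was 7.5 nL into about 10 µL; 0% = median of vehicle wells and 100% = median of positive control wells; one replicate is shown; the record names a cut of 25% in any replicate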
Target sequence (Q9QR71 whole entry, looked up): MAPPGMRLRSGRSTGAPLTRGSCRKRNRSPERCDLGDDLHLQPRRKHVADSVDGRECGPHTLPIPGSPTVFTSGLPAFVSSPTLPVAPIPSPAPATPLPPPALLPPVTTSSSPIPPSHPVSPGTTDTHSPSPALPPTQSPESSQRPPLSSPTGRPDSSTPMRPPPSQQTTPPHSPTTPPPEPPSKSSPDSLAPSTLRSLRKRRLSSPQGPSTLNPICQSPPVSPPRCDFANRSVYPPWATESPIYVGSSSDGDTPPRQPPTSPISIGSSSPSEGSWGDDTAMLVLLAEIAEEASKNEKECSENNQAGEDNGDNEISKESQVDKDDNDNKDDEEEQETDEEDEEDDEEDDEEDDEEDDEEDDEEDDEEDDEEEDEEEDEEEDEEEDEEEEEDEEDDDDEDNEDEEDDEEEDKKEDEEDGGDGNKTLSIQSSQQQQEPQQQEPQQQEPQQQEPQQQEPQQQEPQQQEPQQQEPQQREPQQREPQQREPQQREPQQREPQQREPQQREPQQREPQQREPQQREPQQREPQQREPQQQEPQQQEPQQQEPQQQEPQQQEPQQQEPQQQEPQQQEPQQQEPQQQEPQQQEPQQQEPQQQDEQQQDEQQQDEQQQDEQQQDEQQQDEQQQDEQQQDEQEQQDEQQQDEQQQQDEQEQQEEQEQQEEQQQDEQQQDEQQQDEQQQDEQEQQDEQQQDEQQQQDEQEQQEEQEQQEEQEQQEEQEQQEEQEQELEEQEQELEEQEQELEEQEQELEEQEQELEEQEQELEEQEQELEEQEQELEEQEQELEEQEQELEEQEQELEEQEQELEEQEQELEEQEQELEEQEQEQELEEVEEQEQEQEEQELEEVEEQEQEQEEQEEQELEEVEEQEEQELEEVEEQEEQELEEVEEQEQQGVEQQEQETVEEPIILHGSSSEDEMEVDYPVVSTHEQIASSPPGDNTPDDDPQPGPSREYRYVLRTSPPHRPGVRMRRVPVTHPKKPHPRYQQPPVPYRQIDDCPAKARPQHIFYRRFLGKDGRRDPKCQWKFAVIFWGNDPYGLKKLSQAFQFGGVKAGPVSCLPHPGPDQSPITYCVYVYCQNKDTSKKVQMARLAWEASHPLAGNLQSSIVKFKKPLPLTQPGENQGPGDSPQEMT
Calb FLC: C. albicans growth modulation with fluconazole; C. albicans CaCi-2 (fluconazole-resistant clinical isolate) + fluconazole, Alamar Blue growth, 48 h; growth inhibition, % (no concentration beside the values); 300,000 compounds, 0.57% hits; AID 1979;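 active = most replicates above 75%; inconclusive = exactly half above 75%; inactive = most below 75%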;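 note: all wells also contain fluconazole at 8 µg/ml as a sub-toxic cotreatment; 0% = median of DMSO wells and 100% = median of geldanamycin control wells; wells of about 8 µL received 7.5 nL stock; the first replicate is given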
HNF4A DNA FP: change in binding of human HNF4 alpha to DNA. P41235. HNF4a-FITC DNA binding, fluorescence polarization, 1 h. activity change, % at 10 µM. 360,000 compounds, 0.3% hits. AID 1224865; in the data active = activity change above about 30%, passing the limit was not always enough;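 note: controls were the assay level and a saturating level of protein; the project sought stronger binding though the title names inhibitors; some compounds called inactive have numbers as strong as hits; positive values seem to mean higher polarization but the record does not say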
ALR H2O2 inh: inhibitors of human sulfhydryl oxidase ALR | P55789 | purified ALR, DTT oxidation, H2O2 HRP-luminol luminescence | inhibition, % (no concentration beside the values) | 290,000 compounds, 3.8% hits;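 active = mean and each replicate at 75% or more; inconclusive = only one of the two met; inactive = neither met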;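 note: stock transfer was 7.5 nL into about 7.5 µL; 0% = neutral wells and 100% = wells with inactivated enzyme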
Vif TR-FRET: HIV-1 Vif–A3G interaction blockers – biochemical, TR-FRET, GST-Vif 1-94, biotin-A3G peptide, dose response retest, primary screen (AID 1117319); TR-FRET GST-Vif / biotin-A3G peptide binding; higher % means a stronger effect; test concentration not given here; strong numbers were not always called active; one-dose inhibition, %; IC50 in µM for titrated hits; 260,000 compounds, 0.57% hits;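 active = above the screen mean plus three standard deviations and confirmed in dose response; inconclusive = results disagree or hit not tested in dose response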;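 note: Vif residues 1-94 fused to GST binding biotinylated APOBEC3G peptide 110-148; 0% = full assay without inhibitor and 100% = GST in place of GST-Vif; retest series ran down from 100 µM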
Beta2AR agonist: agonists of human beta-2 adrenergic receptor inducing internalization | P07550 | Am2.2-beta2AR cells, FAP receptor internalization, flow cytometry; reference of the scale not given here | response, % (test concentration not listed) | 340,000 compounds, 0.43% hits;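 active = response above a set limit, near 3 SD of response in nonfluorescent compounds, cut at about 42% in these data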;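 note: stock transfer was 100 nL into about 11 µL; a reference agonist was the positive control; negative values mostly stem from fluorescent compounds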
RanGTP-Imp inh: inhibitors of RanGTP-importin-beta interaction, primary screen, biochemical, FRET, CFP-Ran, YFP-importin-beta, homogeneous; cell-free CFP-Ran/YFP-importin-beta FRET ratio; inhibition, % (concentration not given with the values); 300,000 compounds, 1.1% hits;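 active = most replicates above 15%; inconclusive = exactly half above 15%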;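 note: 0% = DMSO wells and 100% = Ran loaded with GDP instead of GTP; wells of about 40 µL received 100 nL stock; the first replicate is given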
Numbers without * were called inactive; ? = inconclusive; nt = no result given; & = joins results of further samples.

SMILES	LANA-H2B inh	Calb FLC	HNF4A DNA FP	ALR H2O2 inh	Vif TR-FRET	Beta2AR agonist	RanGTP-Imp inh
CN(C)c1ccc(P(=O)(OCc2ccccc2)C(O)c2ccc(Br)cc2)cc1 (stereo not given)	-7.4	-0.7	0.5	-1.5	nt	2.0	-0.7
CC1=C(C(=O)Nc2ccccc2C)C(c2ccc(C)o2)N2C(=O)CSC2=N1 (stereo not given)	4.5	-3.7	-1.2	-5.8	15.4%	10.8	-2.9
CCOC(=O)CCN(C(=S)Nc1ccccc1)C1CCCCC1	nt	nt	0.3	nt	-7.9%	-2.4	nt
CON(C)c1nc(OCCNC(=O)OCc2ccc(Cl)cc2C)nc(N(C)C)n1	-0.5	-4.3	-0.8	0.8	?	-9.2	1.8
COc1ccc(N(CC(=O)NCc2cccs2)S(=O)(=O)c2cccnc2)cc1	3.0	-1.8	-0.2	-1.4	-1.0%	-3.9	-1.4
Cc1cccc(NC(=S)N2CCC(c3nc4ccccc4o3)CC2)c1C	-9.6	3.5	1.2	-1.1	-2.8%	-5.4	7.9
CCCCn1cnc2sc3c(c2c1=N)CCCC3	-0.8	?	2.9	-9.2	-2.8%	-13.7	2.3
Cc1ccc(S(=O)(=O)N(CCO)Cc2ccccc2)cc1	-2.4	-7.2	-0.2	nt	nt	-4.7	1.0
Cc1[nH]c2ccccc2c1C(=O)CN1CCC(C(N)=O)(N2CCCCC2)CC1	4.5	-5.0	2.9	-6.4	83.1%	-0.3	-0.3
CC(/C=N/n1c(-c2cc(C)[nH]n2)n[nH]c1=S)=C\c1ccccc1	0.8	31.2	3.2	61.4	nt	-142.6	1.8
CC(=O)c1cccc(NS(=O)(=O)c2c(C(=O)N3CCOCC3)c(C)n(C)c2C)c1	1.2	-8.7	0.5	-5.5	2.7%	-0.6	4.5
CCOc1nc(C)ccc1-c1noc(-c2cccnc2)n1	-1.0	-0.1	-2.5	2.9	7.3%	-8.1	?
CS(=O)(=O)NCc1nnc(SCC(=O)NC2CCCCC2)n1-c1ccc(F)cc1	-2.4	2.3	-0.4	-10.2	-1.9%&-5.4%	-8.6	-1.7
O=[N+]([O-])c1ccc(NCCCO)c(C(F)(F)F)c1	-4.8	-2.6	-2.3	-13.7	3.2%	-1.4	2.1
O=C(N/N=C/c1ccc(N2CCCCC2)o1)C(O)(c1ccccc1)c1ccccc1	-4.2	-18.1	nt	-0.5	nt	nt	4.5
O=C(NCCc1ccc(Cl)cc1)C1CCCN1C(=O)Nc1ccccc1 (stereo not given)	-4.8	0.1	2.3	nt	nt	-0.8	1.0
Nc1ncnc2c1ncn2Cc1ccccc1	-14.7	4.6	1.5	-6.8	-6.9%	10.9	0.7
COc1cc(NC(=O)c2ccc(Br)cc2)ccc1NC(=O)c1cc2ccccc2o1	-1.3	-5.6	2.9	-4.4	5.0%	-4.0	-2.4
N#CCCn1cc(/C=C2\NC(=S)N(c3ccccc3)C2=O)c(-c2ccc(-c3ccccc3)cc2)n1	0.2	-8.6	-1.9	0.9	13.0%	-1.2	3.9
C=CCn1c(SCCOc2ccccc2)nnc1C(C)NC(=O)c1ccccc1 (stereo not given)	3.4	-9.2	-1.9	-1.0	4.2%	10.5	1.5
O=C(NC1CCCCC1)N(CCN1CCOCC1)Cc1cc2cc3c(cc2[nH]c1=O)OCCO3	-3.9	?	3.9	-9.9	?	-3.4	-11.7
Cc1ccc(CNC(=O)Cn2nnc(C(=O)Nc3cccc(C)c3C)c2N)cc1	-1.8	4.3	1.2	-1.1	-5.7%	-2.4	-1.6
Cc1c(Br)c([N+](=O)[O-])nn1C(C)C(=O)Nc1nccs1 (stereo not given)	-1.3	-10.6	0.7	-4.9	1.4%	4.1	-1.8
COc1nc(C)cc(C)c1S(=O)(=O)c1ccccc1	-5.0	-4.9	2.8	-7.2	-4.1%	9.3	1.4
Cc1nc([N+](=O)[O-])cn1CC(O)c1ccc(Cl)cc1 (stereo not given)	1.5	0.7	3.2	-6.9	1.5%	9.0	-2.2
CC1CC(C)CN(CCCNC(=O)c2nn(C)c3c2CS(=O)(=O)c2ccccc2-3)C1 (stereo not given)	2.2	-8.6	1.8	-16.8	nt	-6.6	0.8
CCOC(=O)N1CCN(S(=O)(=O)c2cccc3nonc23)CC1	-1.8	-0.9	7.0	-14.3	-1.2%	2.1	-0.2
O=C(CCN1C(=O)CSC1=O)Nc1ccc(Br)cc1	-1.2	10.0	1.6	nt	8.6%	-4.3	0.1
O=C(Cc1cccc(F)c1)Nc1ccc2c(c1)CCC2	5.2	0.0	5.8	-1.4	nt	-0.7	-0.4
Cc1cccc(NC(=O)CN2CCN(C(=O)c3cncn3-c3ccc(F)cc3)CC2)c1C	1.1	nt	0.9	-4.1	1.2%	-5.7	nt
O=C(Cn1nnc2ccccc21)OCC(=O)c1ccccc1	2.8	-4.5	3.9	-3.9	-4.2%	-0.6	-0.1
CCC(C(=O)N1CCOCC1)n1nc(C)c2sc3ccccc3c2c1=O (stereo not given)	-1.7	0.8	1.5	-8.5	nt	7.9	4.0
COc1cc(/C=N/Nc2cccc(C)c2)ccc1OC(=O)c1ccco1	-0.6	-46.3	-2.1	-4.9	nt	-19.1	0.2
O=C(O)CCC(=O)Nc1nnc(C(F)(F)F)s1	-7.3	nt	1.5	-1.7	-6.3%	1.6	nt
COC(=O)c1cc(-c2ccc(Br)cc2)on1	-2.8	-5.3	-2.6	-1.6	8.7%	-4.5	3.8
CC(=O)Nc1ccc(S(=O)(=O)Nc2ccc(S(=O)(=O)Nc3nc(C)cc(C)n3)cc2)cc1	3.6	2.8	2.0	-4.0	nt	11.1	8.2
Cc1ccccc1NC(=O)C(C)Sc1nnc(-c2ccncc2)n1CC1CCCO1 (stereo not given)	-3.2	24.7	-0.6	0.8	-1.9%	-1.8	1.4
COc1nc(OCCNS(=O)(=O)c2ccc(C)cc2)nc(N(C)C)n1	0.1	9.0	0.1	3.7	-6.3%	3.9	0.8
O=C(CNS(=O)(=O)c1ccccc1)NCc1cccnc1	-3.7	-1.6	-1.5	-12.0	32.1%	0.7	-0.6
COc1ccc(C(=O)Nc2oc(-c3ccccc3)c(-c3ccccc3)c2C#N)cc1OC	-1.4	-1.2	-3.3	-2.0	-2.2%	3.2	-2.3
C/C=C(\C)c1nnc(NC(=O)C(C)C)s1	5.5	-6.0	1.2	-3.5	15.2%	-10.1	1.0
Cc1ccc(C(=O)N/N=C/c2cccc3ccccc23)cn1	-0.1	-5.4	-2.2	-8.1	nt	0.0	?
CC(=O)Nc1ccc(S(=O)(=O)N(c2cccnc2)S(=O)(=O)c2ccc(NC(C)=O)cc2)cc1	-3.8	5.4	-1.5	-15.3	15.9%	-11.7	0.5
CC1CCC(NC(=O)CSc2ccc(S(=O)(=O)N(C)C)cn2)CC1 (stereo not given)	nt	nt	6.9	2.7	-8.3%	-4.8	nt
O=C(COC(=O)C1CCN(S(=O)(=O)c2cccc3cccnc23)CC1)c1ccc([N+](=O)[O-])cc1	0.9	15.2	2.2	7.6	3.7%&7.7%	-3.6	0.6
COc1cc(C2CC(=O)N3CN(Cc4ccco4)CSC3=C2C#N)ccc1OCc1ccccc1 (stereo not given)	15.0	1.9	3.1	-15.9	24.2%	-1.6	0.5
CCCCCC(=O)NN=C1CCN(Cc2ccccc2)CC1	0.7	4.7	1.2	-3.2	nt	11.7	0.3
Cc1cc(C(F)(F)F)c(C#N)c(N2CCOCC2)n1	nt	-16.2	-1.9	nt	14.8%	4.2	-0.5
Oc1c(C(Nc2nc3ccccc3s2)c2ccco2)ccc2cccnc12 (stereo not given)	4.7	?	-2.1	18.6	?	2.6	21.6*
O=C(NCCCn1ccnc1)c1ccccc1Br	-1.6	-10.7	-0.7	nt	-11.6%	1.3	-1.2
COc1ccccc1C1CCN(C(=O)c2cccs2)CC1	-2.9	-19.5	0.7	-1.2	4.5%	7.2	-5.4
Cc1ccc(C(=O)N(CN2CCCC2=O)c2ccc(F)cc2)cc1C	1.3	-4.0	1.1	-5.3	-3.3%	-12.4	?
O=C(CN1CCCCCC1)N1c2ccccc2Sc2ccccc21	-1.3	-24.4	1.0	60.8	nt	5.9	4.9
COc1ccc(S(=O)(=O)N2CCCCC2)cc1NC(=O)c1c(F)cccc1Cl	nt	nt	-1.2	nt	7.3%	0.5	nt
c1nc(NCCN2CCOCC2)c2c3c(sc2n1)CCCCC3	nt	13.4	3.9	nt	-1.8%	-0.5	0.1
Cc1ccc(Cl)cc1NC(=O)COC(=O)C12CC3CC(CC(C3)C1)C2	0.1&-0.6	-39.6	0.3&-0.9	-2.3&-8.5	23.2%&3.6%	1.7&-1.0	-0.6&-1.2
N#CC1=C(N)Oc2n[nH]c(-c3ccc(F)cc3)c2C1c1ccncc1 (stereo not given)	-0.4	2.4	-0.6	5.2	-7.6%	-8.5	-1.9
CC(C)N(Cc1ccccc1)C(=O)CN1C(=O)c2ccccc2C1=O	-1.4	0.3	-2.7	nt	nt	-8.9	0.2
CCn1cc(S(=O)(=O)N2CCN(c3ccc(Cl)cc3)CC2)cn1	0.0	-8.5	1.4	8.9	-4.0%	7.3	1.3
NC(=O)COc1ccc2cc(-c3ccccc3)c(=O)oc2c1	-1.6	-4.9	-3.7	-1.3	1.8%	1.5	5.7

Individual results from the list:
In RanGTP-Imp inh, CC(=O)Nc1ccc(S(=O)(=O)Nc2ccc(S(=O)(=O)Nc3nc(C)cc(C)n3)cc2)cc1 is entered as 8.2
In Beta2AR agonist, Cc1ccc(S(=O)(=O)N(CCO)Cc2ccccc2)cc1 is entered as -4.7

The listing continues.
SMILES	LANA-H2B inh	Calb FLC	HNF4A DNA FP	ALR H2O2 inh	Vif TR-FRET	Beta2AR agonist	RanGTP-Imp inh
COc1ccc(NC(=O)C2CCN(c3nnnn3-c3ccccc3)CC2)cc1	-2.6	?	-0.4	nt	9.9%	3.2	-1.4
Nn1c(SCC(=O)N2CCOCC2)nnc1-c1ccccc1Cl	-2.1	-12.8	1.6	-32.4	-3.6%	-8.2	2.5
COc1cccc(/C=N/n2c(CO)nc3ccccc32)c1OC	1.5	23.5	2.8	-1.0	-0.3%	-3.1	0.9
Oc1ccccc1N=Nc1ccccc1O	nt	93.8*	4.1	nt	nt	-7.1	?
CCc1ccc(NC(=S)N2CCN(c3cccc(C(F)(F)F)c3)CC2)cc1	1.4	-0.4	2.9	-10.9	-1.8%	7.9	4.1
COc1ccc(NC(=S)N(CCc2c(C)[nH]c3ccc(C)cc23)Cc2ccco2)cc1	-2.1	-8.4	6.0	4.6	2.3%	2.4	-4.5
C[C@@H]1C(=O)OC[C@H]1NC(=O)OCc1ccccc1	-1.1	-1.7	1.6	nt	nt	4.2	2.6
Cc1csc(NC(=S)Nc2cccc(Cl)c2)n1	0.8	-6.7	0.9	10.4	nt	-1.4	3.9
COc1ccc(OC)c(CN2CCN(C(=O)CNC(=O)c3cc(C)cc(C)c3)CC2)c1	-0.1	nt	2.9	-10.2	-13.8%	-14.7	nt
CN(C(=O)COC(=O)c1cccc(F)c1)c1ccccc1	-2.2	-4.2	4.1	-1.5	-1.1%	3.0	-2.5
Cc1nc2nc(SCC(=O)c3cccc([N+](=O)[O-])c3)[nH]c2cc1Br	-7.0	0.1	1.2	-9.2	28.8%	0.8	0.3
CCOc1ccc(NC(=O)CN(C)C(=O)c2cc(S(=O)(=O)N3CCCCC3)ccc2Cl)cc1OCC	2.8	-0.4	-0.6	-2.6	-0.8%	-8.6	-0.2

Screening data as filed in PubChem.

Not a hit list; overall some 6.3% were active at least once.
